From PubChem BioAssay
Ecoli rRNA inh = selective bacterial rRNA inhibition in E. coli; E. coli WT GFP vs humanized-ribosome RFP mutants, fluorescence, 24 h; stronger effect = lower value; DMSO median 0, no signal -100; AID 720706; 350,000 tested, 1.6% active; GFP signal change (wild-type ribosome), % (test concentration not listed);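 active means significant combined selectivity score with lowered wild-type GFP, culture density cut under 30%, mutant RFP and density less affected; inactive means any of these conditions unmet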; further: one replicate is shown; some compounds called inactive have numbers as strong as hits
Ecoli rRNA inh OD600 = recorded beside Ecoli rRNA inh, whose call it bears; OD600 change, %; measured here: OD600 growth;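 optical density of the mix in the first replicate; 0 = DMSO median and -100 = no signal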
Ecoli rRNA inh RFP = recorded beside Ecoli rRNA inh, whose call it bears; RFP signal change, %; measured here: RFP humanized mutant strains;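 first replicate; 0 = DMSO median and -100 = no signal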
* hit, by the source's call.

SMILES | Ecoli rRNA inh | Ecoli rRNA inh OD600 | Ecoli rRNA inh RFP
CCCNC(=O)C[C@@H]1CC[C@H]2[C@@H](COc3ccc(NC(=O)c4cccc(F)c4)cc3C(=O)N2C)O1 | -0.5 | 2.4 | -4.2
CCCN1[C@@H]2c3ccc(-c4ccccc4F)c(=O)n3C[C@@H]2[C@@H](CO)[C@@H]1C(=O)NC1CCC1 | -4.8 | -9.8 | 6.7
OCC1COC(c2ccccc2)=N1 (stereo unspecified) | 1.8 | 7.1 | -2.5
C[C@@H]1CN([C@H](C)CO)C(=O)Cc2cc(NC(=O)CCCN(C)C)ccc2O[C@@H]1CN(C)S(=O)(=O)c1ccc(Cl)cc1 | 0.2 | 0.0 | -3.5
C[C@H]1CN([C@@H](C)CO)C(=O)c2ccccc2-c2ccccc2CO[C@@H]1CN(C)C(=O)[C@@H](Cc1ccccc1)N(C)C | 0.2 | -2.1 | -1.0
COc1ccc(N2C(=O)c3n[nH]c(C)c3C2c2ccccc2)cc1 (stereo unspecified) | -41.9 | -63.0 | -11.6
O=C(C[C@@H]1CC[C@@H](NS(=O)(=O)c2cccc(F)c2)[C@@H](CO)O1)N1CCCCC1 | -4.1 | -5.6 | -1.0
Cc1noc(C)c1NC(=O)N(C)C[C@@H]1OCc2ccccc2-c2c(n(C)c3ccccc23)C(=O)N([C@H](C)CO)C[C@H]1C | -0.7 | 2.2 | 1.6
COC(=O)[C@@H]1[C@@H](CO)[C@@H]2Cn3c(cccc3=O)[C@@H]2N1CC1CCOCC1 | 3.2 | 4.9 | -1.0
Cc1ccc(S(=O)(=O)N[C@H]2CC[C@@H](CCNS(=O)(=O)Cc3ccccc3)O[C@@H]2CO)cc1 | 0.7 | 9.3 | -4.2
COC(=O)C[C@@H]1C=C[C@H](NS(=O)(=O)c2cccc(F)c2)[C@@H](CO)O1 | 4.6 | -3.3 | -1.2
COCC(=O)N(C)C[C@@H]1[C@@H](c2ccccc2)[C@H](CO)N1C(=O)Cc1ccncc1 | 1.3 | 4.2 | -1.6
CC(C)NC(=O)Nc1ccc2c(c1)CC(=O)N([C@H](C)CO)C[C@@H](C)[C@H](CN(C)Cc1ccc3c(c1)OCO3)O2 | -2.9 | 3.0 | -1.7
CCCNC(=O)C1(C)CCN(C(=O)c2ccccc2OC(F)(F)F)C1 (stereo unspecified) | 2.0 | 12.1 | -1.1
COc1ccc(CN(C)C[C@@H]2OCCCC[C@H](C)Oc3ccc(NC(=O)NC4CCCCC4)cc3C(=O)N([C@@H](C)CO)C[C@H]2C)cc1 | 1.4 | -4.7 | 12.9
C[C@@H]1CCCCO[C@@H](CN(C)C(=O)Nc2ccccc2)[C@H](C)CN([C@H](C)CO)C(=O)c2cc(NC(=O)CCC(F)(F)F)ccc2O1 | -1.0 | 0.5 | -1.1
NC(c1ccccc1)c1csc(NC(=O)Nc2ccc(OC(F)(F)F)cc2)n1 (stereo unspecified) | -58.0 | -77.8 | -15.2
COc1ccc(Cn2c(C)c(CC(=O)Nc3ccc(Oc4cccnc4)c(C)c3)c3ccccc32)cc1 | 2.7 | 7.3 | 3.3
CC(C)NC(=O)Nc1ccc2c(c1)C(=O)N([C@H](C)CO)C[C@@H](C)[C@@H](CN(C)C(=O)Nc1ccc(C(F)(F)F)cc1)O2 | -30.7 | -53.2 | -4.6
CC(=O)N(C)C[C@H]1Oc2cc(C#Cc3ccccc3F)ccc2S(=O)(=O)N([C@H](C)CO)C[C@H]1C | -19.1 | -37.6 | -0.9
C[C@H]1CN([C@@H](C)CO)C(=O)c2cccc(NC(=O)c3ccncc3)c2O[C@H]1CN(C)C(=O)Nc1cccc2ccccc12 | -1.0 | 11.3 | 1.9
C[C@H](CO)N1C[C@H](C)[C@H](CN(C)C(=O)C2CC2)Oc2cc(-c3ccccc3)ccc2S1(=O)=O | -8.6 | -13.6 | -0.5
C[C@H](NC(=O)C[C@H]1CC[C@@H](NC(=O)C2CCC2)[C@H](CO)O1)c1ccccc1 | -0.3 | 1.2 | -5.4
O=C(C1CC1)N1CC(=O)N2[C@H](C1)[C@@H](c1ccc(C#Cc3cccc(F)c3)cc1)[C@@H]2CO | -59.5 | -80.8 | -13.3
C[C@@H]1CN([C@@H](C)CO)C(=O)c2cc(NC(=O)CCN3CCOCC3)ccc2O[C@@H]1CN(C)C(=O)Nc1ccc(C(F)(F)F)cc1 | -5.0 | -6.7 | -0.5

Next part, starting with the last 2 of the part before.
SMILES | Ecoli rRNA inh | Ecoli rRNA inh OD600 | Ecoli rRNA inh RFP
O=C(C1CC1)N1CC(=O)N2[C@H](C1)[C@@H](c1ccc(C#Cc3cccc(F)c3)cc1)[C@@H]2CO | -59.5 | -80.8 | -13.3
C[C@@H]1CN([C@@H](C)CO)C(=O)c2cc(NC(=O)CCN3CCOCC3)ccc2O[C@@H]1CN(C)C(=O)Nc1ccc(C(F)(F)F)cc1 | -5.0 | -6.7 | -0.5
O=C(NCc1cc2ccccc2[nH]1)C1CCC(=O)N(CC2CCCCC2)C1 (stereo unspecified) | 6.3 | 13.2 | 8.1
C[C@@H]1CN([C@@H](C)CO)C(=O)c2cc(C#CC3CCCCC3)cnc2O[C@H]1CN(C)Cc1cccnc1 | -3.0 | -2.3 | -4.0
O=C(Nc1ccccc1F)N1CC(=O)N2[C@H](CO)[C@@H](c3ccc(C#Cc4ccc(F)cc4)cc3)[C@@H]2C1 | -0.8 | -29.3 | 20.2
CCCN(C)C[C@H]1Oc2cc(C3=CCCC3)ccc2S(=O)(=O)N([C@H](C)CO)C[C@H]1C | 1.8 | -6.1 | 0.1
C[C@@H]1CCCCO[C@H](CN(C)S(=O)(=O)c2ccccc2)[C@@H](C)CN([C@@H](C)CO)C(=O)c2cc(NC(=O)Nc3ccccc3)ccc2O1 | 1.1 | 15.2 | -4.4
CCC(=O)N1[C@H](CO)[C@@H](c2ccc(-c3ccccc3OC)cc2)C12CN(C(C)=O)C2 | 3.0 | 2.2 | 0.0
C[C@H]1CN([C@@H](C)CO)C(=O)CCCn2cc(nn2)CO[C@H]1CN(C)Cc1ccc2cccnc2c1 | -0.6 | 0.1 | -1.6
C[C@@H]1CN([C@H](C)CO)S(=O)(=O)c2ccc(C#CC3CC3)cc2O[C@@H]1CN(C)C | 1.8 | 6.1 | 1.1
C[C@@H]1CCCCO[C@H](CN(C)Cc2ccc(Cl)c(Cl)c2)[C@H](C)CN([C@@H](C)CO)C(=O)c2cc(NC(=O)c3ccccc3)ccc2O1 | -7.7 | -3.8 | 11.8
O=C(C[C@@H]1CC[C@H](NC(=O)c2ccccc2)[C@H](CO)O1)NCCc1ccncc1 | 3.7 | 1.2 | -3.3
Cc1noc(C)c1S(=O)(=O)Nc1ccc2c(c1)C(=O)N([C@@H](C)CO)C[C@H](C)[C@@H](CN(C)CC1CCCCC1)OCCCC[C@@H](C)O2 | 4.4 | -4.1 | 8.9
O=C1NC[C@H](Cc2ccc(O)cc2)N(C[C@H]2CCCN2C[C@H](Cc2ccccc2)N2C[C@H](Cc3ccccc3)N(CCc3ccccc3)C(=O)C2=O)C1=O | 0.5 | -3.9 | 10.2
COC(=O)C1=C(C)N(Cc2ccccc2C(F)(F)F)C(=NCc2cc(OC)c(OC)c(OC)c2)NC1c1ccccc1C(F)(F)F (stereo unspecified) | 23.4 | 9.7 | 3.8
C[C@H](CO)N1C[C@H](C)[C@@H](CN(C)C(=O)Nc2ccc(C(F)(F)F)cc2)Oc2ccc(NC(=O)Nc3cccc4ccccc34)cc2CC1=O | -1.6 | 11.5 | -1.2
COCCNC(=O)C1(C)CCCN(C(=O)c2cc(C)on2)C1 (stereo unspecified) | 10.3 | 16.4 | 1.7
C[C@@H]1CN([C@@H](C)CO)C(=O)c2cc(/C=C/c3ccccc3)cnc2O[C@H]1CN(C)C(=O)CN(C)C | 4.4 | 20.6 | -0.3
CCOC(=O)CSc1nc2nc(Cl)c(Cl)nc2[nH]1 | 23.9 | -26.2 | 1.1
N#C[C@H]1[C@@H](c2ccccc2C2=CCCCC2)[C@H](CO)N1C(=O)Cc1ccncc1 | -5.6 | 0.4 | -1.9
O=S(=O)(c1ccccc1F)N1CC[C@H]2[C@H](CO)Nc3ccc(C4=CCCCC4)cc3[C@H]21 | -0.2 | -5.3 | -4.7
C[C@H]1CCCCO[C@H](CN(C)C(=O)C2CCCCC2)[C@@H](C)CN([C@@H](C)CO)C(=O)c2cc(NS(=O)(=O)c3ccc(F)cc3)ccc2O1 | -2.8 | -2.4 | 1.2
C[C@H](CO)N1C[C@H](C)[C@H](CN(C)C(=O)Nc2ccccc2)Oc2ccc(NC(=O)Nc3ccc(F)cc3)cc2CC1=O | 0.6 | -0.1 | 1.1
COC(=O)C[C@H]1CC[C@@H](NC(=O)Nc2ccc3c(c2)OCO3)[C@@H](CO)O1 | 12.2 | 8.3 | 3.9
COc1ccc(NC(=O)CNCc2cccs2)c(OC)c1 | 2.2 | 1.2 | -1.7
Cc1c(C(=O)NCc2ccc3c(c2)OCCO3)sc(=O)n1Cc1ccccc1C#N | 6.5 | -3.2 | -3.0
C[C@@H]1CN([C@H](C)CO)C(=O)c2cc(NS(=O)(=O)c3cccs3)ccc2O[C@@H](C)CCCCO[C@H]1CN(C)CC1CC1 | 4.4 | 7.2 | -0.2
(listing goes on)
SMILES | Ecoli rRNA inh | Ecoli rRNA inh OD600 | Ecoli rRNA inh RFP
CC1(Cc2cccc(C(F)(F)F)c2)C(=O)Nc2c(Cl)ccc(Cl)c21 (stereo unspecified) | -2.7 | 11.8 | 4.3
CCC(=O)N1[C@H](CO)[C@@H]2c3ccccc3N(C(=O)c3ccc4c(c3)OCO4)C[C@@H]21 | 0.6 | 6.8 | -1.3
CS(=O)(=O)N1CC(=O)N2[C@H](CO)[C@H](c3ccc(C#CCC4CCCC4)cc3)[C@@H]2C1 | -10.3 | -38.4 | 8.9
CN(C)C(=O)[C@H]1[C@H](CO)[C@H]2Cn3c(ccc(C4=CCCCC4)c3=O)[C@@H]1N2Cc1cccnc1 | 2.9 | 4.6 | -3.3
C[C@H]1CN([C@@H](C)CO)C(=O)Cc2cc(NC(=O)Nc3cccc4ccccc34)ccc2O[C@@H]1CN(C)C(=O)Nc1ccc(F)cc1 | 0.2 | -2.7 | 1.1
COc1ccc(-c2coc3c(C(=O)Nc4cccnc4)cccc23)c(C)c1 | -21.4 | -70.2 | -16.1
CC(C)NC(=O)Nc1cccc2c1O[C@H](CN(C)C)[C@@H](C)CN(C)C2=O | 1.6 | 4.7 | 2.0
C[C@@H]1CN([C@@H](C)CO)C(=O)c2cc(NC(=O)c3ccncc3)ccc2O[C@@H](C)CCCCO[C@@H]1CN(C)Cc1ccc2c(c1)OCO2 | -2.0 | 0.9 | -0.4
C[C@H]1CCCCO[C@H](CN(C)C(=O)Nc2ccc(C(F)(F)F)cc2)[C@@H](C)CN([C@@H](C)CO)C(=O)c2cc(NS(=O)(=O)c3cccs3)ccc2O1 | -0.2 | 16.6 | -0.6
Cc1noc(C)c1NC(=O)Nc1ccc2c(c1)CC(=O)N([C@H](C)CO)C[C@H](C)[C@@H](CN(C)Cc1ccccc1)O2 | 2.2 | 7.4 | -1.0
O=C(C1CCCC1)N1CC(=O)N2[C@H](C1)[C@H](c1ccc(C#Cc3cccc(F)c3)cc1)[C@@H]2CO | -44.2 | -73.8 | 9.3
COCCNC(=O)C[C@H]1C[C@@H]2c3cc(NC(=O)CN(C)C)ccc3O[C@@H]2[C@H](CO)O1 | 3.6 | 8.6 | -2.1
CO[C@H]1CN(C)C(=O)c2ccc(NC(=O)c3nc4ccccc4s3)cc2OC[C@@H](C)N(Cc2cncnc2)C[C@@H]1C | -9.2 | -7.4 | 2.1
COCCNc1nc(NCc2cccc(OC)c2)c2sccc2n1 | 2.1 | -17.2 | -7.8
CC(C)NC(=O)N(C)C[C@@H]1OCCCC[C@H](C)Oc2ccc(N(C)C)cc2C(=O)N([C@H](C)CO)C[C@@H]1C | 2.4 | 7.3 | -1.3
CC(C)C(=O)Nc1ccc2c(c1)C(=O)N(C)[C@@H]1CC[C@@H](CC(=O)NCCc3ccccc3)O[C@H]1CO2 | 4.6 | 1.9 | -0.9
C[C@H](CO)N1C[C@H](C)[C@H](CN(C)Cc2ccc(-c3ccccc3)cc2)Oc2ccc(NC(=O)CCCCCC(=O)Nc3ccccc3N)cc2C1=O | 1.7 | -9.8 | 5.1
C[C@H](CO)N1C[C@H](C)[C@H](CN(C)S(=O)(=O)c2ccc(C#N)cc2)Oc2ncc(-c3cc4ccccc4o3)cc2C1=O | -3.8 | -6.7 | 0.9

Structural class, those above containing an aryl methoxy group
SMILES | Ecoli rRNA inh | Ecoli rRNA inh OD600 | Ecoli rRNA inh RFP
COc1ccc(N2C(=O)c3n[nH]c(C)c3C2c2ccccc2)cc1 (stereo unspecified) | -41.9 | -63.0 | -11.6
COc1ccc(CN(C)C[C@@H]2OCCCC[C@H](C)Oc3ccc(NC(=O)NC4CCCCC4)cc3C(=O)N([C@@H](C)CO)C[C@H]2C)cc1 | 1.4 | -4.7 | 12.9
COc1ccc(Cn2c(C)c(CC(=O)Nc3ccc(Oc4cccnc4)c(C)c3)c3ccccc32)cc1 | 2.7 | 7.3 | 3.3
CCC(=O)N1[C@H](CO)[C@@H](c2ccc(-c3ccccc3OC)cc2)C12CN(C(C)=O)C2 | 3.0 | 2.2 | 0.0
COC(=O)C1=C(C)N(Cc2ccccc2C(F)(F)F)C(=NCc2cc(OC)c(OC)c(OC)c2)NC1c1ccccc1C(F)(F)F (stereo unspecified) | 23.4 | 9.7 | 3.8
COc1ccc(NC(=O)CNCc2cccs2)c(OC)c1 | 2.2 | 1.2 | -1.7
COc1ccc(-c2coc3c(C(=O)Nc4cccnc4)cccc23)c(C)c1 | -21.4 | -70.2 | -16.1
COCCNc1nc(NCc2cccc(OC)c2)c2sccc2n1 | 2.1 | -17.2 | -7.8

This is a subset. The share of hits here may be higher or lower than overall.
